From PubChem
Ecoli rRNA inh = inhibits bacterial ribosomal RNA function over humanized ribosomes; E. coli WT GFP vs humanized-ribosome RFP mutants, fluorescence, 24 h; stronger effect = lower value; DMSO median 0, no signal -100; GFP signal change (wild-type ribosome), % (no concentration beside the values); 350,000 tested, 1.6% active; AID 720706;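 active = significant combined selectivity score with lowered wild-type GFP, culture density cut under 30%, mutant RFP and density less affected; inactive = any of these conditions unmet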; note: one replicate is shown; some compounds called inactive have numbers as strong as hits
FGF22 binding = binders of recombinant human FGF22 by thermal shift | Q9HCT0 | SYPRO orange fluorescence; percent of sucrose octasulfate shift, DMSO zero | calls only at 9.99 µM | 340,000 tested, 1.5% active;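 active = melting point raised past a set limit in the mean and every replicate; three in four hits are not shown here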
Target sequence (Q9HCT0 whole entry, looked up): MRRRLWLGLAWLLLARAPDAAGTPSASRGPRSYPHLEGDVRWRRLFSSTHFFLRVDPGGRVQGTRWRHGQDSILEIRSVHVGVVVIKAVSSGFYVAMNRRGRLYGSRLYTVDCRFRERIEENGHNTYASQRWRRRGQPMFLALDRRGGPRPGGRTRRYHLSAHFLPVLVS
MLL AF4-AF9 inh = MLL-AF4/AF9 protein interaction inhibition. AID 651704. P42568. 350,000 tested, 0.47% active. inhibition, % at 10 µM. AlphaScreen, biotin-AF4 peptide binding to FLAG-AF9;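 active = every replicate reaching a set inhibition limit, whatever the replicate mean, cut at about 25% in these data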;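 note: 0% = plate neutral control median and 100% = total signal loss; the record names both 10 and 1 µM as test concentration; the first replicate is given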
Target sequence (P42568 whole entry, looked up): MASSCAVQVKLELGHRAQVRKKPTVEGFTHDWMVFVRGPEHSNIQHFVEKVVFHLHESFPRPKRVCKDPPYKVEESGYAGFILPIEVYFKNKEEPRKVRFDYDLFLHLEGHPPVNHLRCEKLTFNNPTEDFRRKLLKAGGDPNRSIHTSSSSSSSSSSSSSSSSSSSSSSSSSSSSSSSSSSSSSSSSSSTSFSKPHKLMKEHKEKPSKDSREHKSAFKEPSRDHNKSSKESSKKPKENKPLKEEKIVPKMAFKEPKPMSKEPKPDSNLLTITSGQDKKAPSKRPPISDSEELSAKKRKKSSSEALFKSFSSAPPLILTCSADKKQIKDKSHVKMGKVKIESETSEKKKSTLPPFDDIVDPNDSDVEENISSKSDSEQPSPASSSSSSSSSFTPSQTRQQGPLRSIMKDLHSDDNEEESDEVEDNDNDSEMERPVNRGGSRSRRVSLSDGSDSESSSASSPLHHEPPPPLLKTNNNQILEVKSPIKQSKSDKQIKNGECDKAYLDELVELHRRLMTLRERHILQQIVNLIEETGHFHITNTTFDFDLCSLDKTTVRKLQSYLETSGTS
Ecoli rRNA inh OD600 = also measured in Ecoli rRNA inh; calls as there; OD600 change, %; measured here: OD600 growth;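 optical density of the mix in the first replicate; 0 = DMSO median and -100 = no signal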
Ecoli rRNA inh RFP = second read-out of Ecoli rRNA inh, no call of its own (marks repeat the call); RFP signal change, %; measured here: RFP humanized mutant strains;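 first replicate; 0 = DMSO median and -100 = no signal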
Numbers without * were called inactive; i = inactive; . = not tested or not shown; + = active, no number. Only part of the results is shown; the hit share may differ from the screen's.

SMILES | Ecoli rRNA inh | Ecoli rRNA inh OD600 | Ecoli rRNA inh RFP | FGF22 binding | MLL AF4-AF9 inh
Cc1ccccc1S(=O)(=O)N1C[C@@H](O)COC[C@@H]2O[C@@H](CC(=O)N3CCCCC3)CC[C@H]21 | 1.6 | 11.6 | 2.2 | i | -1.2
CN(C)c1ccc2c(c1)[C@H]1C[C@H](CC(=O)NCCc3ccccc3)O[C@H](CO)[C@H]1O2 | 0.1 | -0.6 | 4.3 | i | -2.5
CCCNC(=O)c1cc(C2CCCN(C(=O)c3ccc(OC)cc3)C2)on1 (stereo not given) | 11.3 | 4.2 | -0.1 | i | 0.6
C[C@H]1CN([C@@H](C)CO)C(=O)Cc2cc(NC(=O)Nc3ccc(F)cc3)ccc2O[C@H]1CN(C)Cc1ccncc1 | -12.9 | -37.7 | 3.5 | i | 0.4
C[C@@H]1CN([C@@H](C)CO)C(=O)c2cc(-c3cncnc3)cnc2O[C@@H]1CN(C)C(=O)Nc1ccc2c(c1)OCO2 | -1.4 | 11.3 | -2.3 | i | -0.2
Cc1ccc(S(=O)(=O)Nc2ccc3c(c2)C(=O)N([C@@H](C)CO)C[C@H](C)[C@@H](CN(C)C(=O)Nc2ccccc2)OCCCC[C@@H](C)O3)cc1 | 1.2 | 6.2 | -1.5 | i | 0.5
CCCc1nc2c3ccccc3ccn2c1Cc1ccccc1 | -55.6 | -79.0 | -15.4 | i | 1.3
C[C@@H]1CCCCO[C@@H](CN(C)S(=O)(=O)c2cccs2)[C@H](C)CN([C@H](C)CO)C(=O)c2cc(NS(=O)(=O)c3ccccc3)ccc2O1 | -2.4 | -0.1 | 0.7 | i | 0.0
Cc1ccc(CCNc2ncnc(Cl)c2N)cc1 | 0.9 | 3.5 | -1.0 | + | 2.5
CCCNC(=O)N[C@H]1CC[C@H](CCn2cc(-c3cccc(F)c3)nn2)O[C@H]1CO | -0.8 | 11.4 | 1.7 | i | 0.3
C[C@@H]1CN([C@H](C)CO)C(=O)c2cc(NC(=O)Cc3ccccc3)ccc2O[C@@H](C)CCCCO[C@@H]1CN(C)Cc1ccc(C(=O)O)cc1 | 4.4 | -5.3 | 1.2 | i | 0.3
Cc1cc2nc(-c3ccccc3)c(CC3CCCCC3)n2c(C)c1Br | 17.3 | 3.7 | 5.8 | i | 0.0

Complete entries, quoted from the list. Order of values: Ecoli rRNA inh	Ecoli rRNA inh OD600	Ecoli rRNA inh RFP	FGF22 binding	MLL AF4-AF9 inh
Listed for C[C@@H]1CCCCO[C@@H](CN(C)S(=O)(=O)c2cccs2)[C@H](C)CN([C@H](C)CO)C(=O)c2cc(NS(=O)(=O)c3ccccc3)ccc2O1 = -2.4	-0.1	0.7	i	0.0
Listed for Cc1ccc(S(=O)(=O)Nc2ccc3c(c2)C(=O)N([C@@H](C)CO)C[C@H](C)[C@@H](CN(C)C(=O)Nc2ccccc2)OCCCC[C@@H](C)O3)cc1 = 1.2	6.2	-1.5	i	0.5

Carrying on:
SMILES | Ecoli rRNA inh | Ecoli rRNA inh OD600 | Ecoli rRNA inh RFP | FGF22 binding | MLL AF4-AF9 inh
Cc1noc(C)c1S(=O)(=O)N(C)C[C@H]1Oc2ccc(NC(=O)CCCN(C)C)cc2CC(=O)N([C@H](C)CO)C[C@@H]1C | -0.8 | -17.8 | -1.4 | i | -0.7
O=C(C[C@H]1CC[C@H]2[C@@H](COC[C@H](O)CN2C(=O)c2ccccc2F)O1)NCc1ccc(-c2ccccc2)cc1 | 1.5 | -7.4 | 20.4 | i | -0.6
COCCCNC(=O)c1cccc2c(-c3ccc(O)c(OC)c3)coc12 | -22.7 | -28.9 | -7.3 | i | -10.8
C[C@@H]1CCCCO[C@@H](CN(C)Cc2ccccc2)[C@H](C)CN([C@@H](C)CO)C(=O)c2cc(NS(=O)(=O)c3cn(C)cn3)ccc2O1 | 2.0 | 5.6 | -0.5 | i | -9.5
O=C([C@@H]1[C@@H](CO)[C@@H]2Cn3c(ccc(C4=CCCCC4)c3=O)[C@H]1N2)N1CCC(Cc2ccccc2)CC1 | 1.6 | -2.8 | 3.2 | i | 0.2
N#C[C@H]1[C@H](c2ccccc2)[C@@H](CO)N1C(=O)c1cc(Cl)cc(Cl)c1 | -6.4 | -0.7 | 0.4 | i | -1.1
O=C(N[C@@H]1C=C[C@@H](CC(=O)N2CCCCC2)O[C@@H]1CO)c1ccccn1 | 1.1 | 2.8 | -1.2 | i | -0.3
Cc1noc(C)c1CCC(=O)Nc1cc(Cl)ccc1C(=O)O | -0.4 | 0.4 | 2.1 | i | -0.4
COc1ccc(NC(=O)Nc2ccc3c(c2)C(=O)N([C@@H](C)CO)C[C@H](C)[C@@H](CN(C)Cc2ccncc2)O3)cc1 | 1.0 | 15.0 | 2.1 | i | -9.3
CO[C@H]1CN(C)C(=O)c2ccc(NS(C)(=O)=O)cc2OC[C@H](C)N(C(=O)CN(C)C)C[C@@H]1C | 0.8 | 2.2 | -2.4 | i | -0.7
C[C@H]1CN([C@@H](C)CO)S(=O)(=O)c2ccc(C#CC3CC3)cc2O[C@H]1CN(C)C(=O)C1CCC1 | 2.1 | -1.2 | 1.3 | i | -2.7
C[C@@H]1CN([C@@H](C)CO)C(=O)c2cc(NC(=O)C3CCCCC3)ccc2O[C@@H]1CN(C)C(=O)Nc1ccc2c(c1)OCO2 | -1.6 | -8.3 | -0.9 | i | 4.9
Cc1ccc(S(=O)(=O)Nc2ccc3c(c2)CC(=O)N([C@H](C)CO)C[C@H](C)[C@@H](CN(C)S(=O)(=O)c2ccc(C)cc2)O3)cc1 | -1.2 | 3.4 | -2.0 | i | -2.2
O=C(Nc1ccc2c(c1)OCO2)N[C@H]1CC[C@@H](CCNC(=O)C2CCOCC2)O[C@H]1CO | -0.1 | 0.4 | -1.8 | i | 2.4
O=C(C[C@H]1C[C@H]2c3cc(NC(=O)Cc4ccncc4)ccc3O[C@H]2[C@@H](CO)O1)NCc1ccc(-c2ccccc2)cc1 | -3.5 | -9.3 | -1.2 | i | -0.8
CO[C@@H]1CN(C)C(=O)c2ccc(NS(=O)(=O)c3cn(C)cn3)cc2OC[C@@H](C)N(CCC(F)(F)F)C[C@@H]1C | 0.6 | -3.5 | -1.1 | i | -12.0
CC(C)c1ccc(C(=O)N2CCCCC2c2cc(C(=O)Nc3ccncc3)no2)cc1 (stereo not given) | 9.2 | -56.2 | 19.7 | i | -1.0
O=C(Nc1ccc(Cl)cc1)c1csc([C@@H]2O[C@H](CO)[C@@H](O)[C@H]2O)n1 | 6.1 | 15.0 | -2.0 | i | 3.7
C[C@@H](NC(=O)[C@H]1[C@H](CO)[C@H]2Cn3c(ccc(-c4ccccc4)c3=O)[C@@H]1N2C)c1ccccc1 | -1.3 | 1.9 | -1.8 | i | 0.4
CC(C)CC(=O)c1c(O)cc(O)c2c1OC1=C(C(=O)C(C)(C)C(=O)C1(C)C)C2CC(C)C (stereo not given) | 13.0 | 13.3 | -0.3 | . | 2.8
CCCCCn1cnnc1SCC(=O)c1c(N)n(C2CC2)c(=O)[nH]c1=O | -0.9 | -1.9 | -2.1 | i | 0.3
CCC(=O)Nc1ccc2c(c1)C(=O)N(C)C[C@H](OC)[C@H](C)CN(C(=O)C1CC1)[C@@H](C)CO2 | -1.4 | -3.2 | -0.3 | i | -0.7
CC(C)NC(=O)N(C)C[C@H]1Oc2c(NS(=O)(=O)c3ccc(F)cc3)cccc2C(=O)N([C@H](C)CO)C[C@H]1C | 2.7 | 0.2 | 0.3 | i | 0.7
COc1ccc(NC(=O)Nc2ccc3c(c2)C(=O)N([C@H](C)CO)C[C@@H](C)[C@@H](CN(C)CC2CCCCC2)OCCCC[C@H](C)O3)cc1 | -6.4 | 3.5 | -4.0 | i | 0.0
C[C@H]1CN([C@@H](C)CO)S(=O)(=O)c2ccc(C3=CCCCC3)cc2O[C@H]1CN(C)C(=O)c1ccccc1 | -14.3 | -30.9 | 10.9 | i | 8.3
Cc1noc(C)c1S(=O)(=O)Nc1ccc2c(c1)C(=O)N([C@@H](C)CO)C[C@H](C)[C@@H](CN(C)C(=O)NC(C)C)OCCCC[C@H](C)O2 | -1.1 | -0.6 | -2.1 | i | 3.2
C[C@@H]1CN([C@@H](C)CO)C(=O)c2cc(C#CCC3CCCC3)cnc2O[C@H]1CN(C)S(=O)(=O)c1cccs1 | 5.6 | 1.7 | 1.4 | i | 0.4
CNC(=O)C[C@@H]1CC[C@H]2[C@H](COc3ccc(NC(=O)c4ccccc4Cl)cc3C(=O)N2C)O1 | 1.2 | 6.4 | -1.6 | i | -0.1
C[C@H]1CN([C@@H](C)CO)C(=O)c2cc(-c3cccc(F)c3)cnc2O[C@@H]1CN(C)C(=O)C1CCOCC1 | 4.9 | 14.8 | -1.0 | i | -4.5
C[C@@H]1CN([C@H](C)CO)C(=O)c2cc(NS(=O)(=O)c3ccc(F)cc3)ccc2O[C@@H](C)CCCCO[C@@H]1CN(C)C(=O)c1ccncc1 | -0.9 | -4.5 | 0.6 | i | -1.3
CC(C)NC(=O)N[C@@H]1CC[C@H](CCNC(=O)C2CC2)O[C@@H]1CO | 1.6 | 4.2 | -0.4 | i | -1.2
COc1ccc(C(C#N)=Cc2ccc(NC(C)=O)cc2)cc1 | -49.5 | -66.3 | -15.2 | i | 4.4
CN1C(=O)c2cc(NC(=O)c3ccc(F)cc3)ccc2OC[C@@H]2O[C@H](CC(=O)O)CC[C@H]21 | 0.9 | -4.5 | -0.3 | i | -2.6
CCCCC[C@@H]1C=C(C(=O)OCC)[C@H](c2ccccc2)N1S(=O)(=O)c1ccc(C)cc1 | -0.6 | 2.3 | 0.3 | i | -4.0
C[C@@H]1CCCCO[C@@H](CN(C)C(=O)Nc2ccccc2)[C@H](C)CN([C@H](C)CO)C(=O)c2cc(NC(=O)c3ccccc3)ccc2O1 | -2.3 | -3.8 | 3.2 | i | 1.9
C[C@@H](NC(=O)C[C@H]1CC[C@H]2[C@@H](COC[C@@H](O)CN2C(=O)Nc2cccc(F)c2)O1)c1ccccc1 | -11.0 | -15.1 | 2.3 | i | -2.4
O=C(CN1CCOCC1)N1CC[C@H]2[C@H](CO)Nc3ccc(-c4ccccc4)cc3[C@H]21 | 2.8 | 6.0 | -5.2 | i | 1.6
CN(C)CC(=O)N1[C@@H](C#N)[C@@H](c2ccc(-c3cccc(C(=O)N(C)C)c3)cc2)[C@@H]1CO | 2.2 | -5.5 | -3.3 | i | -1.0
COc1cccc(NC(=O)N(C)C[C@H]2Oc3ncc(/C=C/c4ccccc4)cc3C(=O)N([C@H](C)CO)C[C@@H]2C)c1 | -4.5 | -0.3 | 4.2 | i | 10.3
CN(C)CCCNC(=O)C[C@@H]1CC[C@@H]2[C@@H](COc3ccc(NC(=O)NC4CCCC4)cc3C(=O)N2C)O1 | 1.3 | -0.1 | 1.6 | i | 0.5
COc1c(C)cc(C(O)c2ncc(-c3cccc4ccccc34)[nH]2)cc1C (stereo not given) | -26.1 | -37.5 | -0.1 | i | 3.4
c1csc(CNc2nc(Oc3ccncc3)c3sccc3n2)c1 | 5.0 | 9.9 | -0.1 | i | -4.2
CCOC(=O)C1=C[C@@H](C(C)(C)C)N(S(=O)(=O)c2ccc(C)cc2)[C@H]1c1cccc(Cl)c1 | 10.6 | 15.9 | -1.5 | i | -4.3
C[C@@H]1CN([C@@H](C)CO)C(=O)c2cc(C#CC3(O)CCCC3)cnc2O[C@H]1CN(C)C(=O)Cc1cccnc1 | 4.8 | 9.5 | -4.4 | i | -0.7
C[C@H]1CN([C@@H](C)CO)C(=O)c2cc(NS(C)(=O)=O)ccc2O[C@@H]1CN(C)S(=O)(=O)c1ccc(F)cc1 | 0.5 | 6.0 | 0.9 | i | -2.4
CCN(CC)C(=O)[C@H]1C[C@H](CC(=O)NCCN2CCOCC2)C(=O)N2CCc3c([nH]c4cc(-c5ccco5)ccc34)[C@]12C | 15.8 | 26.6 | 0.5 | i | 10.8
COc1ccccc1NC(=O)N[C@@H]1CC[C@H](CCNC(=O)Cc2ccccn2)O[C@@H]1CO | 4.3 | 2.7 | 1.0 | i | -0.7
C[C@@H]1CCCCO[C@H](CN(C)C(=O)Nc2ccc(C(F)(F)F)cc2)[C@H](C)CN([C@@H](C)CO)C(=O)c2cc(NS(C)(=O)=O)ccc2O1 | -6.3 | -13.9 | 0.3 | i | 2.7
CC(=O)N1[C@@H]2c3ccc(C4=CCCC4)c(=O)n3C[C@H]1[C@H](CO)[C@H]2C(=O)NCc1ccccc1 | -1.1 | 3.8 | 2.5 | i | 3.0
Cc1cccc(NS(=O)(=O)c2cccc(C(=O)NCC(c3ccc(F)cc3)N3CCOCC3)c2)c1 (stereo not given) | -6.6 | -26.1 | 0.5 | i | 2.3
Cc1ccc(-c2nc3ccc(Cl)cn3c2CC(C)(C)C)cc1 | 11.9 | 13.9 | -0.3 | i | -1.7
CCCNC(=O)C[C@H]1C[C@H]2c3cc(NS(=O)(=O)c4cccc(OC)c4)ccc3O[C@H]2[C@@H](CO)O1 | -3.0 | -1.4 | -6.5 | i | -2.9

Reformatted: results already given.
structure	Ecoli rRNA inh	Ecoli rRNA inh OD600	Ecoli rRNA inh RFP	FGF22 binding	MLL AF4-AF9 inh
CC(=O)N1[C@@H]2c3ccc(C4=CCCC4)c(=O)n3C[C@H]1[C@H](CO)[C@H]2C(=O)NCc1ccccc1	-1.1	3.8	2.5	i	3.0
Cc1cccc(NS(=O)(=O)c2cccc(C(=O)NCC(c3ccc(F)cc3)N3CCOCC3)c2)c1 (stereo not given)	-6.6	-26.1	0.5	i	2.3
